Assay outcomes from PubChem BioAssay.
Six1-Eya2 inh – qHTS Assay for Inhibitors of the Six1/Eya2 Interaction | 0.56% of 360,000 active | AlphaScreen GST-Six1/His-Eya2 binding, biochemical; stronger effect = lower value; control for the full effect not named in the record | activity change, % (no concentration beside the values) | Homeobox protein SIX1 (Homo sapiens) + Protein phosphatase EYA2 (Homo sapiens), … | AID 651725, 2012; in the data active = activity change below about -65%; inconclusive = about -30% to -65%; inactive = above about -30%; further: on the % scale 0 is the no-effect control and ±100 the full control effect; compound concentration not given in the record
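AlphaScreen luminescence read after one hour at 37 °C in darkness. Pin-transferred compounds met GST-Six1 and His-Eya2 protein (5X stock 250 nM/500 nM) plus glutathione donor and Ni-chelate acceptor beads (5X, 50 ug/mL).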
PINK1 modulator – A Quantitative High throughput Screen to Identify Chemical Modulators of PINK1 Expression | PINK1 immunofluorescence, high-content cytometry, 24 h | Potency, µM (highest dose often 76.6 µM), for the others: at the top dose activation (PINK1 increase), most hits filed as activators | 0.2% of 410,000 active; active = well fitted activation curve with a large enough effect; inconclusive = small, poorly fitted or top-dose-only effect; inactive = flat fitted curve, though single readings scatter; cell line not stated here;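 further: potency means the concentration at half of the fitted maximal effect; % of control where 0% means no effect; nearly all actives have a fitted effect of over 65% in size; a mitochondrial uncoupler was the plate control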
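Cells are seeded, rested 12 hours, then given compound at five concentrations or DMSO for 24 hours. After fixation, blocking and antibody staining, PINK1 amount and mitochondrial localization are scored; CCCP serves as control.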
D2 PAM – Beta-Arrestin HTS for Positive Allosteric Modulators of the Human D2 Dopamine Receptor: Potentiators; D(2) dopamine receptor (Homo sapiens), P14416; DiscoveRx D2 beta-arrestin cells, luminescence, 90 min; 100% = 57 uM dopamine signal; potentiation, % (test concentration not listed); 0.23% of 360,000 active; AID 624464, 2012; active = potentiation of 50% or more; inconclusive = 30% to 50%; inactive = 30% or less;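 further: compound concentration not given in the record; tested on top of an EC20 dose of dopamine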
Target sequence (P14416 whole entry, looked up): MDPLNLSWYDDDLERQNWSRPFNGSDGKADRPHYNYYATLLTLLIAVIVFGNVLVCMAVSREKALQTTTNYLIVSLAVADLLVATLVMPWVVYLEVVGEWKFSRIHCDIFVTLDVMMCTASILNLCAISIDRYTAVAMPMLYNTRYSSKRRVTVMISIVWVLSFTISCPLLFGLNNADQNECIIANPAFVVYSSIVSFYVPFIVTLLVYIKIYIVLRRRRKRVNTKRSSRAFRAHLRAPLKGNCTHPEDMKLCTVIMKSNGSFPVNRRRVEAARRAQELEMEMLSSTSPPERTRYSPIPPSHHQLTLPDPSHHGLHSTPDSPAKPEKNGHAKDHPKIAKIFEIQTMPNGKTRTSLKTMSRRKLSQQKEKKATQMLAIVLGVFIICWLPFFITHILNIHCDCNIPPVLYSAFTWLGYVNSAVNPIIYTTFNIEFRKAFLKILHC
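PathHunter beta-arrestin assay in DiscoveRx D2 cells. Compounds were added with an EC20 of dopamine (50 nM final) for 90 min at 37 deg C. Luminescence was read 1 h after detection reagent, with 57 uM dopamine as the EC100 control.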
Sfp inh – qHTS Assay for Inhibitors of Bacillus subtilis Sfp phosphopantetheinyl transferase (PPTase). Biochemical Sfp PPTase activity, qHTS. 4'-phosphopantetheinyl transferase ffp (Bacillus subtilis), Q9F4F7. AID 1490, 2009. 3.5% of 310,000 active. Potency, µM, for inactives: max response, negative = inhibition, hits mostly inhibitors; active means well fitted inhibition curve with a large enough effect; inconclusive means small, poorly fitted or top-dose-only effect, or another doubt; inactive means no such curve, though single readings can be large or run the other way;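 further: the enzyme is Sfp with the accession as filed and its product quenches rhodamine fluorescence; potency means the concentration at half of the fitted maximal effect; 0% = enzyme reaction without inhibitor and -100% = no enzyme wells; top concentration of the series not given in the record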
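Buffer: 50 mM Hepes-Na pH 7.6, 10 mM MgCl2, 0.01% Nonidet P-40, 0.01% BSA. Enzyme 15 nM, pre-exposed to compound 15 min; substrates then added and fluorescence change tracked over 30 min.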
TRPV1 PAM – HTS Assay for Compounds that Act as Potentiators of the Vanilloid Receptor 1; Transient receptor potential cation channel subfamily V member 1 (Homo sapiens), Q8NER1; TRPV1-expressing cells, Fluo-8 calcium influx, capsaicin EC20 potentiation; host cell line not named in the record; control for the full effect not named in the record; potentiation, % at 8.33 µM; 0.02% of 320,000 active; AID 540277, 2011; active means potentiation above 80%; inconclusive means 30% to 80%; inactive means below 30%; further: 0% is about no effect
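Fluo-8 calcium influx in TRPV1-expressing cells, kinetic read (ex 480/em 520 nm). Compound added and read 3 min for agonist activity, followed by capsaicin at EC20 final and 2 min further read for enhancement.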
D2 agonist – Beta-Arrestin HTS for Positive Allosteric Modulators of the Human D2 Dopamine Receptor: Agonists; D(2) dopamine receptor (Homo sapiens), P14416; DiscoveRx PathHunter D2 beta-arrestin, luminescence, 90 min; 100% = 57 uM dopamine signal; activation, % (no concentration beside the values); 0.084% of 360,000 active; in the data active = activation above about 40%; inconclusive = about 15% to 40%; inactive = below about 15%; further: compound concentration not given in the record; the text of the record calls up to 30% inactive
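DiscoveRx PathHunter D2 beta-arrestin cells (2,100/well) attached overnight, then compound-stimulated 90 min at 37 C in HBSS/10 mM HEPES/0.1% Tween-20 buffer; beta-galactosidase complementation read by luminescence after 1 h at ambient temperature. Dopamine 57 uM final (EC100) as control.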
CtBP-E1A inh – qHTS Assay for Inhibitors of the CtBP/E1A Interaction | AlphaScreen GST-E1A/His-CtBP binding, 1536-well; stronger effect = lower value; control for the full effect not named in the record | activity change, % (no concentration beside the values) | 0.49% of 340,000 active; in the data active means activity change below about -65%; inconclusive means about -30% to -65%; inactive means above about -30%; further: on the % scale 0 is the no-effect control and ±100 the full control effect; compound concentration not given in the record
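Protein mix (5X: 125 nM each GST-E1A, His-CtBP) was incubated with pinned compound 2 h at 37 deg C in dark, in 50 mM Tris pH 8.0 buffer with 300 mM NaCl. Glutathione donor and nickel acceptor beads followed; AlphaScreen signal read after 1 h.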
* = called active by the depositor; ? = inconclusive; . = not tested or not shown; & = joins results of further samples; ! = repeats disagree; [ ] = another dose, or the depositor's remark.

SMILES | Six1-Eya2 inh | PINK1 modulator | D2 PAM | Sfp inh | TRPV1 PAM | D2 agonist | CtBP-E1A inh
CCCCNC(=O)c1onc(CSc2cccc(OCC)c2)c1C(=O)O | 2 | 2.4% | -2 | 6% | 21 | 1.2 | 2
CC(OC(=O)CNC(=O)c1ccc2ccccc2c1)C(=O)N(C)C1CCCCC1 (stereo not drawn) | -3 | -0.7% | -17 | . | 18 | -4.5 | 7
Cc1ccc(S(=O)(=O)NCc2nc3nc(C)cc(C)n3n2)c(C)c1 | -1 | 1.1%&0.1% | -6 | 10% | -47 | -3.8 | 0
CC(OC(=O)Cc1ccccc1[N+](=O)[O-])C(=O)NC(=O)NC1CCCCC1 (stereo not drawn) | 20 | -0.2% | -20 | . | 0 | 1.7 | 0
N#C/C(=C\c1ccccc1)C(=O)Nc1cccnc1 | 4 | 0.3% | -13 | 18% | . | -7.0 | .
Cc1ccn2c(-c3csc(NCc4ccco4)n3)c(C)nc2c1 | -12 | 1.2% | -4 | ? | -22 | -8.3 | -12
CC(C)N(Cc1nccn1C)C(=O)c1ccc(OC2CCN(C(=O)C3CC3)CC2)cc1 | 0 | 0.1% | 2 | 5% | 10 | 3.1 | .
O=C(c1ccc(Cl)c(S(=O)(=O)N2CCCCC2)c1)N1CCN(Cc2ccccc2)CC1 | -1 | 0.0% | -16 | 3% | 2 | -1.9 | -5
O=C(Nc1c[nH]c(=O)[nH]c1=O)c1cccc([N+](=O)[O-])c1 | 9 | -0.5% | -15 | 10% | -6 | 1.0 | .
NC(=O)CN(c1ccc([N+](=O)[O-])cc1)S(=O)(=O)c1ccccc1 | 2 | 0.3% | 1 | -3% | 5 | -0.2 | 3
CC(C)c1ccccc1OCC(=O)Nc1nnc(C2CC2)s1 | 6 | 6.3% | 1 | . | 4 | -0.6 | -16
CN=C1c2ccccc2CN1c1cccc(C(=O)OC)c1 | 0 | 1.0% | -14 | -6% | -18 | -2.8 | 10
CCC(CC)C(=O)NCCc1ccc(OC)cc1 | 3 | 0.3% | -1 | 16% | -1 | -3.1 | 12
CNS(=O)(=O)c1ccc(NC(=O)c2nc3nc(C)cc(C(F)F)n3n2)cc1 | . | 0.2% | . | 17% | -7 | . | .
NC(=S)NNC(=S)Nc1ccccc1 | -3 | 0.8% | -7 | 10µM* | -6 | -2.3 | 2
Cc1ccc2c(c1)C(SCC(=O)NCCc1ccccc1)CC1(CCCC1)O2 (stereo not drawn) | 11 | ? | -5 | -6% | 18 | -1.3 | -4
COc1ccccc1C(NC(=O)C1CCN(CCOc2ccc(Cl)cc2)CC1)c1ccccn1 (stereo not drawn) | 1 | 1.6% | -13 | . | . | -1.8 | -19
C=CCN(c1cccc(C(F)(F)F)c1)S(=O)(=O)c1cccc(C(=O)OCC(=O)NCCC)c1 | -4 | 0.6% | 0 | 13% | -10 | 2.7 | 4
C=CCn1c(SCC(=O)C23CC4CC(CC(C4)C2)C3)nc(O)cc1=O | 9 | 0.3% | 14 | 3% | -2 | -1.6 | 9
COc1ccc(S(=O)(=O)N2CCCC2C(=O)Nc2nnc(-c3cccnc3)s2)cc1 (stereo not drawn) | -11 | 3.5%[38.3 µM] | -10 | -7% | ? | -1.1 | 6
Cn1c(N)c(C(=O)Nc2ccccc2F)sc1=S | -4 | -0.5% | -21 | -20% | 4 | -7.9 | .
COc1ccc(OC)c(C(C(=O)NC2CCCCC2)N(C(=O)c2snc(C(N)=O)c2N)c2ccccc2OC)c1 (stereo not drawn) | -7 | 3.4% | -13 | 21% | 3 | -6.4 | -13
N#CC1(NC(=O)COC(=O)c2ccc(-c3ccc(O)cc3)cc2)CCCCC1 | 1 | 7.6% | -2 | . | 11 | -1.4 | 0
Cc1ccc(O)c(NC(=O)c2noc3c2CCCCC3)c1 | 11 | 0.3%&-0.7% | 1 | 15% | -12 | -3.7 | -16
COCCCNC(=O)c1cccc2c(-c3ccnn3C)coc12 | -4 | 5.4% | -16 | . | . | -5.7 | -5
CN1/C(=C/C(=O)C2CC2)C(C)(C)c2ccccc21 | 0 | 0.8% | -8 | 11% | -8 | -2.9 | 12
COc1ccc(NC(=O)CN2CCC(NC(=O)C3CCCCC3)CC2)c([N+](=O)[O-])c1 | 4 | 2.5% | -3 | -8% | 7 | -7.0 | -4
COc1ccc(-c2ccc(C(=O)Nc3ccc(NC(C)=O)cc3)c3occc23)c(C)c1 | 3 | 13% | -7 | . | . | -1.1 | -4
COc1cc(=O)[nH]c(SCC(=O)Nc2ccc3ccccc3c2)n1 | 0 | -0.8% | -18 | 12% | 9 | -6.3 | -7
O=C(O)c1cc(O)c2c(c1)C(=O)c1cc(O)cc(O)c1C2=O | ? | 1.9%&0.2% | -45 | 10µM*! | 0 | -7.7 | -16
CNC(=O)Nc1cc(C(F)(F)F)cc(C(F)(F)F)c1 | 4 | -0.6% | -7 | 16% | 5 | 3.2 | 1
CCNC(=O)C1(C)CCN(C(=O)c2ccc(C)c(F)c2)C1 (stereo not drawn) | 3 | 1.8% | -5 | . | . | -4.5 | 5
O=C(Cn1ncc2c([nH]c3ccccc32)c1=O)NCCCN1CCN(c2ccccc2)CC1 | -7 | 0.0%&0.3% | -27 | 6% | 6 | ? | -2
O=C(c1cc(-c2cccs2)nc2ccccc12)N1CCN(S(=O)(=O)c2cccc(F)c2)CC1 | 10 | -0.9% | -13 | 2% | 25 | -1.7 | -2
C=CCC[C@@H](Cc1ccc(F)cc1)C(=O)OC[C@H](C)NC(=O)[C@@H](CC=C)CC(=O)N[C@@H](CO)Cc1ccccc1 | 1 | 11% | -10 | . | . | 0.2 | .
O=C(NNCc1ccc(O)cc1)c1ccccc1Cl | 1 | 0.3% | -5 | 6% | 7 | 1.1 | .
c1ccc(COc2ncnc3c2ncn3CCCN2CCN(Cc3cccc4ccccc34)CC2)cc1 | -11 | -1.4% | . | . | . | 1.0 | -13
COCC(=O)N(Cc1cc2ccccc2[nH]c1=O)c1ccc(OC)cc1 | 0 | -2.7% | -7 | 2% | 5 | 2.4 | 0
CCn1nc(NS(=O)(=O)c2ccccc2)c2cc3cc(C)ccc3nc21 | 4 | 0.8% | -8 | 6% | 27 | 0.6 | .
O=C(c1cccc(S(=O)(=O)N2CCc3ccccc3C2)c1)N1CCN(c2ccc(O)cc2)CC1 | -16 | -2.1% | 12 | -33% | 8 | 11 | -11
COc1ccc(CNC(=O)C2CCCN(S(=O)(=O)c3c(C)noc3/C=C/N(C)C)C2)cc1 (stereo not drawn) | -6 | -0.7% | -10 | 5% | 9 | -3.4 | -4
COC(=O)c1c(N2C(=O)CC(Sc3ccccc3C(=O)O)C2=O)sc(C)c1C (stereo not drawn) | -2 | 2.2% | -9 | 14% | 4 | -2.0 | -3
Cn1c(NNC(=O)c2cccc3ccccc23)cc(=O)n(C)c1=O | 2 | -0.7% | -10 | 10% | 3 | -4.5 | 9
COc1ccc(NC(=O)c2cc(-c3cc(C)c(C)cc3O)n[nH]2)c(OC)c1 | 6 | 7.7% | -2 | 9% | -2 | 0.1 | 0
COc1ccc(COC(=O)C2CCN(S(=O)(=O)c3ccc(F)cc3)CC2)cc1 | 8 | 0.0% | 0 | . | -25 | 4.1 | 5
COc1ccc(NC(=O)c2cc(C3CCCCN3C(=O)c3cc(OC)c(C)c(OC)c3)on2)c(C)c1 (stereo not drawn) | -15 | 1.3% | -15 | . | . | -5.9 | ?
NC(=O)C(c1ccccc1)c1ccc(C(=O)c2ccccc2)cc1 (stereo not drawn) | 14 | -1.5% | -5 | 17% | 1 | 2.6 | 2
CCOC(=O)C1=CCN(S(=O)(=O)c2ccccc2Cl)C1c1cccc(C)c1 (stereo not drawn) | 9 | 1.3% | -1 | . | . | -7.9 | 1

Three entries picked at random from the list so far:
SMILES | Six1-Eya2 inh | PINK1 modulator | D2 PAM | Sfp inh | TRPV1 PAM | D2 agonist | CtBP-E1A inh
CCOC(=O)C1=CCN(S(=O)(=O)c2ccccc2Cl)C1c1cccc(C)c1 (stereo not drawn) | 9 | 1.3% | -1 | . | . | -7.9 | 1
CCNC(=O)C1(C)CCN(C(=O)c2ccc(C)c(F)c2)C1 (stereo not drawn) | 3 | 1.8% | -5 | . | . | -4.5 | 5
C=CCN(c1cccc(C(F)(F)F)c1)S(=O)(=O)c1cccc(C(=O)OCC(=O)NCCC)c1 | -4 | 0.6% | 0 | 13% | -10 | 2.7 | 4

Additional compounds follow.
SMILES | Six1-Eya2 inh | PINK1 modulator | D2 PAM | Sfp inh | TRPV1 PAM | D2 agonist | CtBP-E1A inh
Cc1cc2c(s1)CCCCC(=O)N2 | -1 | 7.7% | -8 | 2% | -1 | -1.1 | 1
Cc1cccc(NC(=O)CN2C(=O)N/C(=C/c3cc(C)n(-c4cccnc4)c3C)C2=O)c1 | -1 | 4.7% | 15 | 14% | ? | 3.5 | -12
CN(Cc1ccc(OC(F)F)cc1)C(=O)c1ccc2c(=O)n3c(nc2c1)CCC3 | -19 | 0.4% | -35 | . | -6 | 3.7 | -2
O=C(NCc1cccs1)C1CCN(c2ccc(S(=O)(=O)N3CCOCC3)cc2Cl)CC1 | 21 | 2.0% | -14 | 6% | -30 | -1.3 | 0
COc1ccc(OC)c(C2C=C(c3ccc(C)c(C)c3)Nc3nnnn32)c1 (stereo not drawn) | -2 | 13% | -17 | -13% | 1 | -3.9 | 3
Cn1c(=O)c2c(nc(CN3CCc4ccccc4C3)n2Cc2ccc(Cl)cc2)n(C)c1=O | 2 | -4.0%[38.3 µM] | -4 | 11% | -7 | 0.5 | 5
CN(c1ccccc1)S(=O)(=O)c1ccc(Cl)c(C(=O)NC2=NCCS2)c1 | 2 | -0.4% | 8 | 0% | 21 | 2.6 | .
CCCCc1c(-c2ccc(F)cc2F)ncn1CCc1ccccc1OC | -16 | 0.1% | . | . | . | . | 3
NC(=O)CC(NC(=O)Cc1cccc2ccccc12)c1ccc(NCc2ccccc2)c([N+](=O)[O-])c1 (stereo not drawn) | -24 | 2.7% | -10 | -25% | 8 | 0.5 | .
